Rce1 inh: inhibitors of yeast Ras-converting enzyme | calls only | 290,000 compounds, 0.27% hits | yeast membranes, quenched prenylated peptide cleavage fluorescence | Q03530;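 active = fall in fluorescence gain of 50% or more versus controls, with final raw signal at or below 3038400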;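 also: plate controls were neutral control wells for no effect and wells lacking membranes for full effect; tested at 10 µM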
Target sequence (Q03530 whole entry, looked up): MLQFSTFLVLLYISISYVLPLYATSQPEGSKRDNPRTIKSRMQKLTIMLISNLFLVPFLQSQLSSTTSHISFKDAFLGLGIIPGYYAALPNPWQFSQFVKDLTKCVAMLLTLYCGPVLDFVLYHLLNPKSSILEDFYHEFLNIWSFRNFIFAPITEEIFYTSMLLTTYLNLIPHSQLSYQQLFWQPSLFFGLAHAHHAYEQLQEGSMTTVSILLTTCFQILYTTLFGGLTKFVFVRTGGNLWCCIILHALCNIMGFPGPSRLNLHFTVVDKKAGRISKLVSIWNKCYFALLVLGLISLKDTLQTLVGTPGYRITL
eIF4H FP inh: inhibitors of RNA binding by human eIF4H | eIF4H fluorescence polarization binding assay | inhibition, % at 35 µM | 290,000 compounds, 0.94% hits;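 active = 50% or more with normal probe brightness, or confirmed in later tests; about a fifth of its hits are not listed in these tables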;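 also: calls also rest on retests at 20 µM and on dose response follow-up; 0% = protein and probe with vehicle and 100% = probe without protein; strong numbers were not always called active; many hits fall short of the cut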
HIV Env fusion: inhibitors of HIV Env-mediated cell fusion | HeLa-JRFL Env/CEM21 cell fusion, luciferase | inhibition, % at 12.3 µM | 360,000 compounds, 1.1% hits | AID 651610;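 active = mean replicate inhibition score of at least 50 and every replicate individually at or above 50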;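 also: 0% = plate neutral controls and 100% = maraviroc near 300 nM; one replicate is shown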
CSC inhib: blocks cancer stem cells; cancer stem cell-like cells viability, luminescence; inhibition, % at 7.5 µM; 300,000 compounds, 1.1% hits; AID 2717;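 active = mean at 75% or more and at least half the replicates too; tested in HMLE shEcad cells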;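 also: 0% = median of negative and 100% = median of positive control wells; the first replicate is given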
Yeast UUG start: alters start codon recognition fidelity in yeast; AID 602363; activity score, % at 18.7 µM; S. cerevisiae UUG-firefly luciferase reporter, luminescence/redox ratio; 350,000 compounds, 0.13% hits;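 active = replicate mean at a twofold rise or more, about +100% in these data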;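 also: firefly luciferase made from a UUG start codon reports start codon fidelity; reporter light over untreated wells divided by growth signal over untreated wells; some hits fall short of that in this replicate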
MT1-MMP act inh: inhibitors of human MT1-MMP activation; GFP/RFP ratio change, % at 20 µM; HT1080 RFP-PRO-GFP cells, GFP/RFP ratio fluorescence, overnight; percent of plate control window, DMSO zero; 360,000 compounds, 0.061% hits;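 active = GFP/RFP ratio change of at least 30% with cell ATP level not reduced by more than half and red fluorescence within 50% of control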; also: strong numbers were not always called active
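Assay system: RFP-PRO-GFP reporter HT1080 cells; read-out basis: GFP/RFP fluorescence ratio; benchmarks: DMSO wells and RFP-L50D-GFP cells; doses: 20 µM single dose, 1% DMSO; schedule: overnight cell settling, then overnight compound exposure, 37 °C, 5% CO2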
PABP FP inh: blocks human PABP binding to poly(A) RNA; fluorescence polarization; inhibition, % at 35 µM; 290,000 compounds, 1% hits; AID 2014;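 active = 50% or more with normal probe brightness, or confirmed in later tests; about a fifth of its hits are not listed in these tables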;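 also: calls also rest on retests at 20 µM and on dose response follow-up; controls were probe without protein and protein plus probe with vehicle; some compounds called inactive have numbers as strong as hits; many hits fall short of the cut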
Target sequence (P11940 whole entry, looked up): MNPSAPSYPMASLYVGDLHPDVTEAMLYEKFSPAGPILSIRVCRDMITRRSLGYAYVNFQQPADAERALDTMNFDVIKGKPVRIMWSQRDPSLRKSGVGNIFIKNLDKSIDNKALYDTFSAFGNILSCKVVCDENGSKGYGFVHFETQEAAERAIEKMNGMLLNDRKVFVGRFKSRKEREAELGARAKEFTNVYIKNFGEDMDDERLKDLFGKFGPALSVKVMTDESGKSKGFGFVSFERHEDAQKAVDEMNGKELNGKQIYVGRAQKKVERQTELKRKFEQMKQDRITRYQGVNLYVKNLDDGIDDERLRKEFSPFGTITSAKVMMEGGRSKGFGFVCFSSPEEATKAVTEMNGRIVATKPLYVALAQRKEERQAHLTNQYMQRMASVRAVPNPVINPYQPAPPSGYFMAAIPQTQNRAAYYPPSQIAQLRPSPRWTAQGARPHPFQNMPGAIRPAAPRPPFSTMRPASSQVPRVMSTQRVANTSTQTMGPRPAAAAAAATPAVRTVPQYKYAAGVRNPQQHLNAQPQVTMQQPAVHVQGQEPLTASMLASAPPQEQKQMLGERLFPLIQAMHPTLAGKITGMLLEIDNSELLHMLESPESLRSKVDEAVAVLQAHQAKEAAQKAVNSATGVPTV
MT1-MMP act inh RFP: also measured in MT1-MMP act inh; calls as there; RFP signal change, %; measured here: RFP expression control read;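 0 = vehicle wells; hits needed this value within 50% of zero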
Starred values were filed as active, the others as inactive; i = inactive; . = no result given. Only part of the results is shown; count on the stated rates, not on these rows.

No. | molecule | Rce1 inh | eIF4H FP inh | HIV Env fusion | CSC inhib
1 | CC(=O)Nc1cccc2ncccc12 | i | 4 | . | -7
2 | C/C(CC(=O)Nc1ccccc1[N+](=O)[O-])=N\NC(=O)COc1ccccc1C | i | 0 | -18 | -10
3 | Cc1ccccc1OCC(=O)N/N=C/c1cccc(Oc2ccc([N+](=O)[O-])cc2[N+](=O)[O-])c1 | i | -14 | -32 | 36
4 | CC[n+]1c(/C=C(\C)OC)sc2ccccc21 | . | -7 | -23 | .
5 | COc1ccc(C(C)=O)cc1CC(=O)NC1CCCCCC1 | i | 10 | 17 | 3
6 | COc1ccccc1NC(=O)NCc1ccco1 | i | 3 | 26 | -1
7 | Cc1ccc(CNC(=O)COC(=O)C2CCN(S(=O)(=O)c3cccs3)CC2)cc1 | i | -9 | 2 | -3
8 | CC1=C(C(=O)Nc2ccc(C)cc2)C(c2ccco2)NC(=O)N1 (stereo not given) | i | -6 | . | -8
9 | Cc1cc(C)c2oc(C(=O)Nc3ccc(S(=O)(=O)Nc4nccc(C)n4)cc3)cc(=O)c2c1 | i | -4 | 10 | 4
10 | CC1=C(C(=O)OCc2cc(C)on2)N2C(=O)[C@@H](NC(=O)OCc3cc(C)on3)[C@H]2SC1 | . | . | -3 | -15

No. | Yeast UUG start | MT1-MMP act inh | MT1-MMP act inh RFP | PABP FP inh
1 | -9 | -1 | -4 | -14
2 | -22 | 0 | 2 | 0
3 | -20 | -10 | -23 | -13
4 | . | 3 | 2 | 23
5 | 3 | 3 | 4 | 6
6 | . | 4 | 3 | -7
7 | 10 | 0 | 5 | -10
8 | -18 | 0 | 4 | -5
9 | -26 | 5 | 7 | 13
10 | -23 | -1 | -1 | .

New compounds follow
No. | molecule | Rce1 inh | eIF4H FP inh | HIV Env fusion | CSC inhib
11 | COc1cc(/C=C2\SC(N)=NC2=O)cc(OC)c1 | i | -10 | 59* | 1
12 | CS(=O)(=O)N(CC(=O)N1CCN(c2ccccc2F)CC1)C1CCCCC1 | i | 9 | . | -3
13 | FC(F)(F)c1cccc(Oc2nc(-c3ccccc3)nnc2C(F)(F)F)c1 | i | 2 | -29 | -6
14 | CCCCCO | . | . | . | -11
15 | O=C(OCCCN=C1NS(=O)(=O)c2ccccc21)c1ccccc1 | . | -5 | -6 | -8
16 | O=C(Cc1ccccc1[N+](=O)[O-])NCc1ccc2c(c1)OCO2 | i | 3 | . | -2
17 | COC(=O)C1=C(C(=O)c2ccccc2)C(c2ccc(OC)c(OC)c2)Nc2nnnn21 (stereo not given) | i | -10 | . | -6
18 | CCN1CCN(C(=O)c2ccc(CN(c3ccccc3)S(=O)(=O)c3ccccc3)cc2)CC1 | i | 8 | -14 | 24
19 | CN(Cc1ccccc1)C(=O)c1cccc(NC(=O)Cc2ccc(NC(=O)C3CCCN(C(=O)C4CCCC4)C3)cc2)c1 (stereo not given) | . | . | 9 | .
20 | c1ccc2nc3[nH]cnc3nc2c1 | i | 3 | . | 1

No. | Yeast UUG start | MT1-MMP act inh | MT1-MMP act inh RFP | PABP FP inh
11 | 3 | -7 | -4 | -12
12 | -11 | 1 | 0 | 0
13 | . | -2 | 6 | -2
14 | -14 | 0 | 6 | .
15 | -4 | -2 | 2 | -2
16 | . | -3 | 3 | -1
17 | -16 | -2 | 1 | -4
18 | -13 | -1 | 3 | -5
19 | -15 | -3 | -7 | .
20 | -20 | 3 | 5 | 7

More entries follow:
No. | molecule | Rce1 inh | eIF4H FP inh | HIV Env fusion | CSC inhib
21 | COC(=O)Cn1cnc2c1c(=O)n(C)c(=O)n2C | i | 0 | . | -8
22 | Cc1nn(-c2ccccc2)c(Cl)c1C1C(C#N)=C(N)OC2=C1C(=O)CCC2 (stereo not given) | i | 1 | -23 | -9
23 | CCOC(=O)c1c(NC(=O)CCC(=O)N2CCOCC2)sc2c1CC(C)(C)OC2 | i | 2 | . | -4
24 | COc1cc(NC(=O)CSc2nnc3c(C)cc4c(C)ccc(C)c4n23)c(C(=O)O)cc1OC | i | -1 | 1 | 4
25 | CC(=O)Nc1ccc(-c2csc(NC(=O)Cc3ccccc3F)n2)cc1 | i | 4 | -7 | 90*
26 | Cc1c(/C=N/NC(=O)c2cc(Br)ccc2O)c(=O)n(C)c(=O)n1C | i | 5 | 11 | -19
27 | O=C(/C(C=Nc1cccc(C(F)(F)F)c1)=C(/O)c1ccco1)C(F)(F)F | i | 0 | -10 | .
28 | O=c1c2cc(N3CCOCC3)ccc2[nH]c(=S)n1CCc1ccccc1 | i | 0 | 17 | 45
29 | CC1CC(=O)Nc2ccccc2N1C(=O)CSc1nnnn1C(C)C (stereo not given) | . | . | -16 | .
30 | CS(=O)(=O)N1CCN(C(=O)COc2ccc3ccccc3c2)CC1 | i | 8 | 28 | .

No. | Yeast UUG start | MT1-MMP act inh | MT1-MMP act inh RFP | PABP FP inh
21 | -11 | 4 | 2 | -5
22 | -2 | 0 | 1 | 4
23 | -3 | 0 | 2 | 2
24 | . | 10 | 5 | 5
25 | 17 | 2 | -7 | 2
26 | -13 | 3 | 2 | 12
27 | -14 | -8 | 4 | -9
28 | . | 1 | -5 | -3
29 | -15 | 3 | 1 | .
30 | 4 | -2 | -3 | -8

Reprinted from the part before: 2 compounds, followed by the next part.
No. | molecule | Rce1 inh | eIF4H FP inh | HIV Env fusion | CSC inhib
29 | CC1CC(=O)Nc2ccccc2N1C(=O)CSc1nnnn1C(C)C (stereo not given) | . | . | -16 | .
30 | CS(=O)(=O)N1CCN(C(=O)COc2ccc3ccccc3c2)CC1 | i | 8 | 28 | .
31 | COc1ccccc1C(=O)Nc1nsc(-c2ccccc2)n1 | i | 2 | -28 | 1
32 | CCOc1cc(CNCCc2ccccc2)ccc1OCC(=O)NC(C)(C)C | i | -14 | . | 12
33 | O=C(Cn1cc(S(=O)(=O)Cc2ccc([N+](=O)[O-])cc2)c2ccccc21)N1CCOCC1 | i | -13 | 7 | -8
34 | NC(=O)CC(NC(=O)c1ccc(Br)cc1)c1ccc(N2CCCCCC2)c([N+](=O)[O-])c1 (stereo not given) | i | -8 | -15 | 123*
35 | Cc1[nH]c(=O)nc2c1CCC2 | i | 0 | -4 | -13
36 | CSc1ccccc1NC(=S)NCc1ccc(Cl)cc1 | i | -14 | -37 | 11
37 | COc1ccc(-c2cnn3c(N)c(S(=O)(=O)C(C)(C)C)cnc23)cc1 | i | -6 | -49 | -3
38 | COc1ccc(NC(=O)NCc2ccco2)c(OC)c1 | i | -14 | -4 | 1
39 | COC(=O)C(NC(=O)C(NC(=O)c1ccccc1)C(C)C)C(C)C (stereo not given) | . | -12 | -43 | .
40 | COC(=O)c1cc(Br)c(=O)n(CCN2CCCCC2)c1 | i | 14 | . | -7

No. | Yeast UUG start | MT1-MMP act inh | MT1-MMP act inh RFP | PABP FP inh
29 | -15 | 3 | 1 | .
30 | 4 | -2 | -3 | -8
31 | -15 | -8 | -2 | 0
32 | -11 | 2 | -2 | -5
33 | -3 | 0 | 0 | 16
34 | -9 | 4 | -3 | -12
35 | . | -8 | 5 | 3
36 | -20 | 1 | 5 | -42
37 | -13 | -15 | -5 | 4
38 | . | 3 | 7 | -6
39 | -19 | 2 | 0 | 5
40 | -17 | 8 | 8 | 12

In another format: 5 of the compounds above.
Order of results – Rce1 inh, eIF4H FP inh, HIV Env fusion, CSC inhib, Yeast UUG start, MT1-MMP act inh, MT1-MMP act inh RFP, PABP FP inh
[32] CCOc1cc(CNCCc2ccccc2)ccc1OCC(=O)NC(C)(C)C
→ i, -14, ., 12, -11, 2, -2, -5
[33] O=C(Cn1cc(S(=O)(=O)Cc2ccc([N+](=O)[O-])cc2)c2ccccc21)N1CCOCC1
→ i, -13, 7, -8, -3, 0, 0, 16
[34] NC(=O)CC(NC(=O)c1ccc(Br)cc1)c1ccc(N2CCCCCC2)c([N+](=O)[O-])c1 (stereo not given)
→ i, -8, -15, 123*, -9, 4, -3, -12
[35] Cc1[nH]c(=O)nc2c1CCC2
→ i, 0, -4, -13, ., -8, 5, 3
[36] CSc1ccccc1NC(=S)NCc1ccc(Cl)cc1
→ i, -14, -37, 11, -20, 1, 5, -42

The list goes on.
No. | molecule | Rce1 inh | eIF4H FP inh | HIV Env fusion | CSC inhib
41 | CCNC(=O)NC(=O)C(C)Oc1ccc(Br)cc1Br (stereo not given) | i | -1 | 18 | -3
42 | C=CCOc1c(Cl)cc(CNc2ccc(N(C)C)cc2)cc1OC | . | 20 | -124 | 53
43 | COc1ccc(Cl)cc1NS(=O)(=O)c1cccc(C(=O)NC2CCC(O)CC2)c1 (stereo not given) | i | . | 10 | -9
44 | O=c1[nH]c(=O)c2cc([N+](=O)[O-])cc([N+](=O)[O-])c2[nH]1 | i | -6 | 13 | -7
45 | CCn1nnnc1NC(=O)c1cc(Cl)c(OC)c(Cl)c1 | i | -5 | -10 | -6
46 | CCN(CC)C(=O)CN(c1ccc(F)c(Cl)c1)S(C)(=O)=O | i | 12 | . | -9
47 | CCOc1cc(C2C3=C(CC(C)(C)CC3=O)N(CCCOC)C3=C2C(=O)CC(C)(C)C3)ccc1OC | i | 6 | -1 | -13
48 | Cc1cnc(C(=O)Nc2ccccc2F)cn1 | i | -5 | . | -2
49 | Fc1ccc(-n2nnc(-c3ccccc3)n2)cc1 | i | -16 | 1 | -16
50 | CC[C@@]1(C(=O)OC)N[C@H](CN(C)S(=O)(=O)c2ccc(OC)cc2)[C@@H]2C(=O)N(C)C(=O)[C@@H]21 | . | . | -89 | .

No. | Yeast UUG start | MT1-MMP act inh | MT1-MMP act inh RFP | PABP FP inh
41 | . | 0 | 2 | -1
42 | -16 | 16 | 16 | 11
43 | 5 | -3 | -5 | .
44 | . | 3 | -2 | 2
45 | . | 3 | 3 | -7
46 | -17 | 3 | 8 | -3
47 | -10 | -3 | -3 | -3
48 | . | -1 | 4 | -1
49 | -8 | -3 | -2 | -8
50 | -11 | 3 | 2 | .

The results go on:
No. | molecule | Rce1 inh | eIF4H FP inh | HIV Env fusion | CSC inhib
51 | CC(C)CC(=O)Nc1nnc(SCC(=O)NC2CCCC2)s1 | . | . | 18 | .
52 | CCOC(=O)N1CCN(CC(O)COCc2ccccc2)CC1 (stereo not given) | i | 0 | 3 | -5
53 | COc1ccc(N(CC(=O)NC(C)c2ccccc2)S(=O)(=O)c2c(C)noc2C)cc1 (stereo not given) | i | -4 | 15 | 13
54 | O=C(Cc1n[nH]c(=O)c2ccccc12)N/N=C/c1cc2c(cc1Cl)OCO2 | . | -9 | 1 | 9
55 | CC1CCCN(S(=O)(=O)c2ccc3[nH]c4c(c3c2)CCCC4)C1 (stereo not given) | i | 2 | 11 | -8
56 | O=C(COc1ccc2ccccc2c1Br)N1CCCCC1 | i | -11 | . | 6
57 | Cc1ccc(S(=O)(=O)N2CCOCC2)c2nsnc12 | i | -2 | 1 | -6
58 | O=C(OC(C(=O)Nc1cccc(C(F)(F)F)c1)c1ccccc1)C1CCCCC1 (stereo not given) | . | -4 | . | 8
59 | CCCOc1ccc(C(CC(=O)O)NC(=O)c2cccs2)cc1 (stereo not given) | i | -1 | 13 | -1
60 | Cc1ccc(OCc2nc3ccccc3[nH]2)cc1 | i | 3 | -78 | 5
61 | Cc1cc(=O)oc2cc(NC(=O)Cc3ccccc3)ccc12 | i | 0 | -10 | 2
62 | CSc1ccc2[nH]c(=O)cc(C)c2c1 | i | -4 | . | -3
63 | COc1cc(CNC2CCCCCC2)cc(OC)c1O | i | -6 | . | .

No. | Yeast UUG start | MT1-MMP act inh | MT1-MMP act inh RFP | PABP FP inh
51 | -9 | -4 | -1 | .
52 | -12 | 2 | -7 | -5
53 | -7 | 1 | 0 | 3
54 | -14 | 1 | -7 | 12
55 | -19 | -10 | -15 | 2
56 | 7 | -8 | -4 | -4
57 | -13 | 8 | 6 | -6
58 | -15 | -4 | -4 | -4
59 | -7 | 7 | 3 | 6
60 | -35 | 1 | 2 | -10
61 | -10 | 2 | 2 | -4
62 | -5 | 3 | 5 | -6
63 | -9 | 0 | 2 | -3

Compound activity from PubChem.
